High-throughput results as filed in PubChem.
GIV-Gai inh – inhibitors of GIV peptide binding to Galpha-i3, primary screen, biochemical, fluorescence polarization, FITC-GIV GBA peptide, rat Galphai3. Guanine nucleotide-binding protein G(i) subunit alpha-3 (Rattus norvegicus), P08753. 90 min; stronger effect = lower value; scaled: aluminum fluoride 0%, vehicle 100%. percent of control (FP), % (test concentration not listed). actives 0.42% (n = 210,000). AID 1224905, 2016;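 active means replicate mean at 85% of control or lower, very high polarization wells dropped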;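 further: wells of about 15 µL received 100 nL stock; the first replicate is given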
Target sequence (P08753 whole entry, looked up): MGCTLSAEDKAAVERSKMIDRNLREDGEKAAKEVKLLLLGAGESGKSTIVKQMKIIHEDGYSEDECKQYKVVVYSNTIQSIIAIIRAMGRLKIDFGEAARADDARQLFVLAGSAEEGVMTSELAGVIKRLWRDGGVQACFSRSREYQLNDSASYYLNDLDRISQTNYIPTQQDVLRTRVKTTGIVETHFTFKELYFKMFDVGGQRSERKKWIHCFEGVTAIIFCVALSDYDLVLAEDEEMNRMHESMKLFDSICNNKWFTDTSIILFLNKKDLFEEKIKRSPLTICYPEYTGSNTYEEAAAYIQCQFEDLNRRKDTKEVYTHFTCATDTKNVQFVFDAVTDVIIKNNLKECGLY
Sa growth 42C – S. aureus growth inhibition at 42 and 30 °C, primary screen, LtaS inhibitor project, RN4220, two temperatures. OD600, 20 h, 42 °C; stronger effect = lower value. relative growth, % (test concentration not listed). actives 0.53% (n = 170,000);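 active means growth at 42 °C up to 50% and 20 or more points under that at 30 °C, or under 10% at both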;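 further: 300 nL library stock went into each well; scaled to the means of positive and negative controls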
HCMV UL50-53 inh – inhibitors of HCMV UL50-UL53 interaction, biochemical, HTRF; normalized percent inhibition; inhibition, % (no concentration beside the values); actives 0.15% (n = 190,000);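 active means both replicates at 50% or more, plus weaker picks with an unusually low signal ratio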;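 further: stock transfer was 100 nL into about 20 µL; 0% = negative control wells and 100% = wells with untagged competitor protein; inactives centre near -12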
Sa growth 42C second temp – second read-out of Sa growth 42C, no call of its own (marks repeat the call); relative growth, %; measured here: growth at 30 °C;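 optical density after 20 h as mean of two plates; 100% = untreated growth and lower means inhibition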
Starred values were filed as active, the others as inactive; . = no result given; & = joins results of further samples.

SMILES | GIV-Gai inh | Sa growth 42C | Sa growth 42C second temp | HCMV UL50-53 inh
CC1(c2ccccc2)CC(C)(C)N(C(=O)CSc2ncn[nH]2)c2ccccc21 (configuration not stated) | . | 101.4 | 81.0 | -18.5
NC(=O)CSc1sc(=S)sc1SCC(N)=O | 102.1 | 87.4 | 77.2 | -126.4
C=CCN1C(=O)C(C#N)=C(C)/C(=C\c2ccc(-c3cccc(C(=O)O)c3)o2)C1=O | 83.2* | 69.1 | 56.1 | -6.2
O=S(=O)(Nc1ccc(Cn2cnc(-c3nc(-c4ccc(Cl)cc4)no3)c2)cc1)c1ccc(F)c(F)c1 | 106.7 | . | . | -30.2
CCc1cccc(OCC(=O)Nc2ccc(S(=O)(=O)Nc3nccs3)cc2)c1 | 106.3 | 78.6 | 52.2 | .
COC(=O)c1cccc(S(=O)(=O)N(C)C)c1 | 99.3 | 99.5 | 100.0 | -2.1
CC(=O)NC1(c2ccccc2F)CCN(CC(=O)N2CCN(C(=O)c3ccco3)CC2)CC1 | 100.9 | 111.2 | 83.2 | -3.2
Cc1ccc(S(=O)(=O)NCC(=O)OCc2cc(=O)n3cc(C)ccc3n2)cc1 | . | 95.9 | 93.4 | -34.8
CC1CCCN(C(=O)C2c3ccccc3C(=O)N(C)C2c2c[nH]c3ccccc23)C1 (configuration not stated) | 100.2 | 112.0 | 89.8 | .
O=C(COC(=O)C1(c2ccccc2)CC1)Nc1nnc(-c2ccccc2)o1 | . | -0.5* | -0.5* | -9.5
O=C(Nc1nc2c(s1)C(=O)NCCC2)c1ccccc1 | 107.1 | 103.7 | 83.8 | -1.2
O=C(NCc1ccccc1)C(=O)Nc1c2c(nn1-c1ccccc1)CSC2 | 104.5 | 108.0 | 76.0 | .
O=C(CCCN1C(=O)CSc2ncccc21)N1CCCCC1 | 104.2 | 98.9 | 84.5 | .
C/C(=N\NC(=O)Cc1cccs1)c1ccc(S(=O)(=O)N(C)C)cc1 | . | 103.7 | 94.0 | -6.0
O=S(=O)(c1ccc(Br)cc1)N1CCC2(CC1)Nc1cc(F)ccc1-n1cccc12 | 105.7 | . | . | 9.5
OCCNc1ccc(Cl)nn1 | 96.2 | . | . | -2.1
Cc1nc2c3ccccc3n3c(CCCC(=O)NCC4CCCO4)nnc3n2n1 (configuration not stated) | 107.6 | 95.9 | 83.5 | 8.2
CCn1c(=O)c2sccc2n2c(SC)nnc12 | 112.7 | . | . | -10.0
COc1ccc(CN(C2CCCC2)S(=O)(=O)c2ccc(-n3cnnn3)cc2)cc1 | 98.9 | 127.2 | 77.5 | -3.7
N#Cc1ccccc1NC(=O)COC(=O)c1ccco1 | . | 100.1 | 78.5 | -6.5
Cc1ccc2nc(C)cc(NC3CCCCC3)c2c1 | 152.1 | 110.7 | 59.8 | .
NC(=O)c1ccccc1NC(=O)c1ccccc1 | 114.5 | 109.4 | 102.2 | 2.9
O=C(NCCCN1CCOCC1)Nc1noc2c1COc1ccccc1-2 | 103.0 | 81.5 | 84.9 | -26.4
C=CCn1c(SCC(=O)N(CC)CC)nc(O)cc1=O | 103.5 | 97.7 | 81.7 | -23.8
Cc1ccccc1Cn1c(C)c(CNCc2ccccc2)c(C(=O)O)c1C | 106.3 | 117.0 | 87.1 | -24.5
Following part.
SMILES | GIV-Gai inh | Sa growth 42C | Sa growth 42C second temp | HCMV UL50-53 inh
COc1ccc(NC(=O)Nc2nc3cc(C)c(C)cc3s2)cc1 | 100.5 | . | . | -20.7
CCCOC(=O)C1=C(C)NC2=C(C(=O)CC(c3ccc(OC)c(OC)c3)C2)C1c1ccc([N+](=O)[O-])cc1 (configuration not stated) | 101.9 | . | . | -17.5
COc1cc(C2C(C#N)=C(N)Oc3n[nH]c(-c4cccc([N+](=O)[O-])c4)c32)cc(OC)c1OC(=O)N1CCOCC1 (configuration not stated) | 102.3 | . | . | -22.6
CCc1ccc(NC(=O)CC2C(=O)N(c3cccc(OC)c3)C(=O)N2C2CCCC2)cc1 (configuration not stated) | 106.5 | 93.4 | 105.3 | .
Cc1csc2ncnc(N3CCN(C(=O)Nc4ccc(OC(F)(F)F)cc4)CC3)c12 | 104.8 | 71.4 | 86.1 | -15.1
COc1ccc(C2(O)CCN(CC(=O)NC(C)(C)C)CC2)c(OC)c1 | 103.8 | 106.4 | 86.5 | -11.5
CCCNC(=O)c1ccc2ccccc2c1 | 108.5 | 128.4 | 91.0 | .
COc1ccc(OC)c(-n2c(=S)[nH]c3cc(C(=O)NCc4ccc(F)cc4)ccc3c2=O)c1 | 101.2 | 121.1 | 65.5 | .
CN(C)c1ccc(C2C3=C(CC(C)(C)CC3=O)Nc3ccccc3N2C(=O)c2ccc(F)cc2)cc1 (configuration not stated) | 103.2 | . | . | -20.1
O=C(Cc1csc(NC(=O)Nc2cccc(Cl)c2)n1)Nc1ccccc1 | 102.5 | . | . | -20.1
Cc1cc(C)c2c(c1)/C(=N/NC(=O)CCN1CCOCC1)CCC2 | . | 101.7 | 101.2 | -21.3
COc1ccc(NC(=O)C(C)N2C(=O)CCn3nc(C)cc32)cc1 (configuration not stated) | 101.6 | . | . | -4.0
CC(C)(C)c1cccc(OCCON2C(=O)CCC2=O)c1 | 105.3 | 108.7 | 100.8 | -9.1
Cc1noc(C)c1S(=O)(=O)N1CCC(C)CC1 | 98.4 | 114.7 | 86.6 | .
C/C(CC1(O)C(=O)N(C)c2ccccc21)=N\O (configuration not stated) | 100.7 | 119.0 | 81.4 | .
COC(=O)C(C(=O)Nc1cc(C)on1)C1CCCC1 (configuration not stated) | 104.6 | 98.5 | 82.4 | -4.4
COc1cccc(-c2nc(CS(=O)(=O)CC(=O)NC3CCCC(C)C3C)c(C)o2)c1 (configuration not stated) | 104.1 | 103.8 | 88.0 | .
CCN1CCN(CCCNC(=O)c2cnn(-c3ccc(C)cc3C)c2C2CCNCC2)CC1 | 107.8 | 96.3 | 101.6 | 9.0
O=C1CSC(CC(=O)Nc2ccccc2)=N1 | 101.0 | 94.6 | 86.6 | -25.8
COc1ccccc1NC(=O)C1=C(C)NC2=C(C(=O)CCC2)C1c1cc2c(cc1Br)OCO2 (configuration not stated) | 97.0 | 104.0 | 98.9 | -13.7
COC(=O)c1ccccc1NC(=O)CN(C)Cc1ccccc1 | . | 82.7 | 87.2 | -3.6
O=C(Nc1ccc(Br)cc1F)C1CCN(c2nnc(-n3cccc3)s2)CC1 | 103.1 | 97.1 | 70.2 | -1.4
CCOc1ccc(N/C(N)=N/c2nc(C(F)(F)F)cc(C(F)(F)F)n2)cc1 | 98.9 | 95.7 | 87.5 | .
CCOC(=O)N1CCC(NC(=O)CCNC(=O)Cn2ccc3ccccc3c2=O)CC1 | 96.3 | 92.6 | 89.0 | -26.5
CC1=C(C(=O)Nc2ccc(C)cc2C)C(c2ccc[nH]2)n2ncnc2N1 (configuration not stated) | 100.4 | 94.4 | 94.0 | .

Entries shown so far that have a CF3 group (2):
SMILES | GIV-Gai inh | Sa growth 42C | Sa growth 42C second temp | HCMV UL50-53 inh
Cc1csc2ncnc(N3CCN(C(=O)Nc4ccc(OC(F)(F)F)cc4)CC3)c12 | 104.8 | 71.4 | 86.1 | -15.1
CCOc1ccc(N/C(N)=N/c2nc(C(F)(F)F)cc(C(F)(F)F)n2)cc1 | 98.9 | 95.7 | 87.5 | .

Rewritten field by field: entries from further up.
CCCOC(=O)C1=C(C)NC2=C(C(=O)CC(c3ccc(OC)c(OC)c3)C2)C1c1ccc([N+](=O)[O-])cc1 (configuration not stated)
  GIV-Gai inh = 101.9; Sa growth 42C = .; Sa growth 42C second temp = .; HCMV UL50-53 inh = -17.5

COc1cc(C2C(C#N)=C(N)Oc3n[nH]c(-c4cccc([N+](=O)[O-])c4)c32)cc(OC)c1OC(=O)N1CCOCC1 (configuration not stated)
  GIV-Gai inh = 102.3; Sa growth 42C = .; Sa growth 42C second temp = .; HCMV UL50-53 inh = -22.6

CCc1ccc(NC(=O)CC2C(=O)N(c3cccc(OC)c3)C(=O)N2C2CCCC2)cc1 (configuration not stated)
  GIV-Gai inh = 106.5; Sa growth 42C = 93.4; Sa growth 42C second temp = 105.3; HCMV UL50-53 inh = .

Cc1csc2ncnc(N3CCN(C(=O)Nc4ccc(OC(F)(F)F)cc4)CC3)c12
  GIV-Gai inh = 104.8; Sa growth 42C = 71.4; Sa growth 42C second temp = 86.1; HCMV UL50-53 inh = -15.1

(more compounds)
SMILES | GIV-Gai inh | Sa growth 42C | Sa growth 42C second temp | HCMV UL50-53 inh
COc1cc(CN2CCN(S(=O)(=O)c3ccc(F)cc3)CC2)cc(OC)c1OC | 104.0 | 105.5 | 95.7 | 5.6
Clc1ccc(-c2noc3c(NCc4ccccc4Cl)ncnc23)cc1 | 107.3 | . | . | -18.8
O=C1CC(c2ccc(O)c(O)c2)c2c(nc(SCc3ccc(Cl)cc3)[nH]c2=O)N1 (configuration not stated) | 106.5 | . | . | 2.2
CNC(=O)c1sc(=S)n(-c2ccccc2)c1N | 110.8 | 101.9 | 92.4 | -69.1
CC(C)N(C(=O)CSc1nc(O)cc(=O)[nH]1)C(C)C | . | 80.3 | 87.2 | -13.5
Cc1ccc(C(=O)NCC(c2ccco2)S(=O)(=O)c2ccccc2)cc1C (configuration not stated) | 107.6 | 83.6 | 84.4 | .
N#C/C(=C\C=C\c1ccco1)C(N)=S | 78.3* | 66.3 | 48.6 | 51.4
CC1(C)CC(=O)C2=C(C1)N(c1ccc(F)cc1)C(=O)C2(O)C(F)(F)F (configuration not stated) | 102.2 | 93.3 | 102.1 | 2.1
COc1ccccc1/C=C/CNn1c(-c2cc(OC)c(OC)c(OC)c2)nc2ccccc2c1=O | 102.2 | . | . | -14.1
NNC(=O)c1csc(CS(=O)(=O)Cc2ccco2)n1 | 104.6 | 97.4 | 93.4 | -10.3
c1ccc2c(c1)ncn1c3ccccc3nc21 | 101.4 | 97.3 | 89.5 | -28.2
O=C(O)C1Cc2c([nH]c3ccccc23)C(c2ccc(Cl)cc2Cl)N1 (configuration not stated) | 106.3 | . | . | -16.0
O=C(Nc1c2c(nn1-c1ccc(Cl)cc1)CS(=O)(=O)C2)c1cccc(F)c1 | 99.6 | 111.3 | 95.2 | .
CCCC(=O)Nc1nonc1-c1ccccc1 | 102.5 | 90.2 | 85.5 | -18.5
COc1ccc(CNC(=O)C2CC(=O)N(C3CCCC3)C2)cc1 (configuration not stated) | 101.7 | 122.9 | 86.4 | .
Cc1cc(C)c(NC(=O)CSc2nccn2Cc2ccco2)c(C)c1 | 103.9 | 111.8 | 82.7 | .
CSc1sc(C(=O)N2CCOCC2)c2c1S(=O)(=O)N(C)c1ccccc1-2 | 101.8 | 96.8 | 93.0 | -1.9
CCOC(=O)Cn1c(=O)oc2cc(S(=O)(=O)NCc3ccc(F)cc3)ccc21 | 106.6 | 103.9 | 82.0 | -8.6
N#Cc1c2c(c(-c3ccco3)[nH]c1=O)CCCC2 | 95.2 | 109.8 | 75.2 | -62.1
COc1ccc(CC(=O)N2CCc3cc(OC)c(OC)cc3C2COc2ccc(F)cc2)cc1 (configuration not stated) | 100.1 | 126.6 | 82.3 | .
N#CCn1c(C(F)(F)F)nc2ccccc21 | 96.1 | . | . | -16.0
FC(F)(F)c1cc(-c2cccs2)no1 | 99.8 | 97.3 | 89.6 | -13.9
O=C(CSc1n[nH]c(-c2ccccc2)n1)c1cccs1 | 103.9 | 99.6 | 89.7 | -23.8
CCOC(=O)CSc1nc2sc3c(c2c(=O)n1-c1ccc(OC)cc1)CCC3 | 110.0 | . | . | 12.9
CCC(=O)N1c2ccccc2NC2=C(C(=O)CC(C)(C)C2)C1CC1CC=C(C)C1(C)C (configuration not stated) | 97.1 | 110.0 | 83.1 | -7.2&-3.9
New compounds follow:
SMILES | GIV-Gai inh | Sa growth 42C | Sa growth 42C second temp | HCMV UL50-53 inh
COC(=O)c1ccc(-n2nnnc2SCC(=O)c2ccc(O)c(O)c2)cc1 | 100.6 | 74.1 | 44.4 | -60.3
CC(=O)Nc1cccc(NC(=O)C2CCCN2C(=O)Nc2ccccc2Cl)c1 (configuration not stated) | 106.1 | 78.5 | 91.4 | 23.3
COCCn1nnc2cc(S(=O)(=O)N3CCCCC3C(=O)Nc3ccccc3Cl)ccc21 (configuration not stated) | 108.9 | . | . | -13.2
Nc1nc(N)nc(Cn2c(-c3nonc3N)nc3ccccc32)n1 | 100.4 | . | . | 5.1
O=C(Nc1ccc(I)cc1)C1(S(=O)(=O)c2ccc(Cl)cc2)CC1 | . | 97.3 | 101.0 | 4.4
COc1ccc(N2CC(C(=O)NCCS(=O)(=O)N3CCc4ccccc4C3)CC2=O)cc1 (configuration not stated) | 103.8 | . | . | -14.9
CSc1ncc(C(=O)NC2CC2)c(-c2ccccc2)n1 | 98.8 | 98.6 | 97.7 | -19.3
N#CC1=C(SCC(=O)Nc2ccccc2)NC(=O)CC1c1ccc(Br)cc1 (configuration not stated) | 96.4 | . | . | -8.9
CN(C)CCNC(=O)c1cccc(C(=O)NCCN(C)C)n1 | 99.5 | . | . | 8.8
O=C(CCn1cnc2ccccc2c1=O)N1CCN(c2ccccc2F)CC1 | 101.4 | . | . | -8.1
NC(=O)COC(=O)c1cccc(I)c1 | . | 119.3 | 93.4 | -21.5
Cc1nc2sc(C(=O)N(C3=NC(C)CS3)c3ccc(Cl)cc3)c(C)c2c(=O)[nH]1 (configuration not stated) | . | 142.2 | 92.8 | -42.5
CCOC(=O)c1c(C)oc2ccc(N(C(=O)c3ccncc3)S(=O)(=O)c3ccc(F)cc3C)cc12 | 106.0 | 92.5 | 94.5 | 8.2
